Bioassay records: PubChem, National Center for Advancing Translational Sciences (NCATS)
SARS PLP yeast: inhibitors of SARS-CoV papain-like protease in yeast | AID 485353 | Potency, µM (doses to about 32.9 µM), inactives show at the highest dose activity, positive = growth rescue | hit rate 0.19% among 330,000 | S. cerevisiae expressing SARS-CoV PLpro, growth rescue; control for the full effect not named in the record; active means well fitted rising curve with a large enough effect; inconclusive means small, poorly fitted or top-dose-only effect; inactive means no such curve, though single readings can be large or run the other way; further: 0% is about no effect; nearly all actives have a fitted effect of over 55% in size; growth read by luminescence after 48 h
StopGo reporter: FMDV 2A StopGo reporter, luciferase signal; AID 1159524; Potency, µM (series often up to 57.9 µM), without a hit: top-dose signal change, negative = less light; human cells with a luciferase reporter of 2A StopGo recoding; control for the full effect not named in the record; hit rate 1.2% among 410,000; active = well fitted falling curve with a large enough effect; inconclusive = small, poorly fitted or top-dose-only effect; inactive = no such curve, though single readings can be large or run the other way; tested in HEK293T cells; further: on the % scale 0 is the no-effect control and ±100 the full control effect; nearly all actives have a fitted effect of over 45% in size; luciferase light after 4 h
LASV entry inh: blocks Lassa virus binding to or entry into cells | Lassa virus pseudotype entry inhibition, cell reporter; control for the full effect not named in the record | Potency, µM (series often up to 37.9 µM), without a hit: at the top dose activity change, negative = inhibition, hits mostly inhibitors | hit rate 1.2% among 300,000; active means well fitted inhibition curve with a large enough effect; inconclusive means small, poorly fitted or top-dose-only effect, or effect the other way; inactive means flat fitted curve, though single readings scatter; tested in HEK293 cells; further: on the % scale 0 is the no-effect control and ±100 the full control effect; nearly all actives have a fitted effect of over 50% in size; luciferase read-out
Marburg entry inh: inhibitors of Marburg virus binding or cell entry; Marburg virus pseudotyped entry inhibition, cell reporter; control for the full effect not named in the record; about a third of the inactives were read at about 46 µM; Potency, µM (highest dose often 37.8 µM), without a hit: at the top dose activity change, negative = inhibition, most hits filed as inhibitors; AID 540276; hit rate 1.8% among 300,000; active = well fitted inhibition curve with a large enough effect; inconclusive = small, poorly fitted or top-dose-only effect, or effect the other way; inactive = flat fitted curve, though single readings scatter; tested in HEK293 cells; about a fifth of its hits are not listed in these tables; further: on the % scale 0 is the no-effect control and ±100 the full control effect; luciferase read-out
RE007 growth inh: less growth of the S. pombe RE007 Vpr strain; S. pombe RE007 Vpr strain, BacTiter-Glo ATP luminescence, 24 h; control for the full effect not named in the record; Potency, µM (titrated, usually from 92.2 µM), for the others: at the highest dose activity change, negative = less growth; hit rate 0.21% among 360,000; AID 651644; active = well fitted falling curve with a large enough effect; inconclusive = small, poorly fitted or top-dose-only effect; inactive = no such curve, though single readings can be large or run the other way;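 further: on the % scale 0 is the no-effect control and ±100 the full control effect; nearly all actives have a fitted effect of over 50% in size; the assay follows cell death caused by Vpr and the record does not say whether a fall means rescue or toxicity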
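Fission yeast RE007 carrying one integrated HIV-1 vpr copy, seeded at OD 0.01 in PMG+AL medium with 23 nL pinned compound. Grown 24 h at 30 degrees; viability read by BacTiter-Glo luminescence after 5 min.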
Cruzain inh noDet: blocks cruzain activity in detergent-free assay; hit rate 2.3% among 200,000; purified cruzain, Z-FR-AMC fluorescence, no detergent; Potency, µM, without a hit: max response, negative = inhibition, usual class: inhibitors;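 further: plate controls were enzyme without inhibitor for no effect and buffer without enzyme for full effect; nearly all actives have a fitted effect of over 40% in size; top concentration of the series not given in the record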
Target sequence (P25779 123-467 limits assumed): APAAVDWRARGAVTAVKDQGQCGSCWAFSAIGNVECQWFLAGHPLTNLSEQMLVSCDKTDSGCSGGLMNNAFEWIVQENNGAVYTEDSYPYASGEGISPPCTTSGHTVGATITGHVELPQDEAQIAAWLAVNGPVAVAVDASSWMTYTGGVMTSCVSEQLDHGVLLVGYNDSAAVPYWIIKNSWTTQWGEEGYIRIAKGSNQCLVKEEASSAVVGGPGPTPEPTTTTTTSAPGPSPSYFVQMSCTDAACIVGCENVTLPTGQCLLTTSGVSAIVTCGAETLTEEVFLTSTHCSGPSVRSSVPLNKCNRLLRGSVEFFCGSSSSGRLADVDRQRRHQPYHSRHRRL
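Detergent-free condition (0.00005% Triton X-100) in acetate buffer pH 5.5 with DTT. 1.5 nM enzyme and compound were pre-mixed 15 min, then 2 uM Z-FR-AMC substrate added; reaction progress from fluorescence change between first and third reads (60 s).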
Cruzain inh Det: blocks cruzain activity in presence of Triton detergent; Potency, µM, for the others: max response, negative = inhibition, usual class: inhibitors; purified cruzain, Z-FR-AMC fluorescence, 0.01% Triton; hit rate 0.43% among 200,000; P25779;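 further: plate controls were neutral wells for no effect and buffer without enzyme for full effect; nearly all actives have a fitted effect of over 40% in size; top concentration of the series not given in the record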
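Enzyme 1.5 nM, Z-FR-AMC 2 uM, NaOAc 100 mM pH 5.5, DTT 5 mM, Triton X-100 0.01%; 15 min RT compound preincubation; kinetic ex360/em450, 60 s delta.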
NS1 inh: influenza NS1 inhibition; S. cerevisiae slowed by influenza A NS1, growth recovery by OD600; Potency, µM (highest dose often 46.1 µM), inactives show top-dose activity, positive = more growth; hit rate 0.4% among 270,000; active means well fitted rising curve with a large enough effect; inconclusive means small, poorly fitted or top-dose-only effect; inactive means no such curve, though single readings can be large or run the other way; further: nearly all actives have a fitted effect of over 50% in size
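Read-out: OD600 growth recovery of NS1-expressing budding yeast. Cells grown overnight at 30C in -URA glucose medium, washed, resuspended and diluted 1:100 in 2% galactose assay medium, pH 6.0. Same strain lacking NS1 served as positive control.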
Active calls of the source: *; ? = inconclusive; / = no result given; & = joins results of further samples; [ ] = another dose, or the depositor's remark. Unless noted, the call rests on the fitted dose curve; in most records, active means well fitted curve in the direction sought with a large enough effect; inconclusive means small, poorly fitted or top-dose-only effect, or another doubt; inactive means no such curve, though single readings can be large; an effect the other way counts as inactive or inconclusive. Potency means the concentration at half of the fitted maximal effect.

SMILES	SARS PLP yeast	StopGo reporter	LASV entry inh	Marburg entry inh	RE007 growth inh	Cruzain inh noDet	Cruzain inh Det	NS1 inh
COc1cccc(N2CCN(c3ncnc4c3[nH]c3ccc(F)cc34)CC2C)c1 (stereo not given)	-39%	2µM*	2.8µM*	?	6%	5%	-9.2%	-39%
CC(=O)Nc1ccc(S(=O)(=O)N(C)CC(=O)OC(C)C(=O)N(C)Cc2ccccc2)cc1 (stereo not given)	3%	-19%	11%	17%	5%	/	/	4%
O=C(CCCc1ccccc1)c1ccc2c(c1)OCCO2	-19%	7.9µM*	?	0.46µM*	-2%	-19%	-7.1%	-15%
CCN(CC)c1ccc(CNC(=O)C/C(C)=N/NC(=O)COc2ccc(C)cc2Br)cc1	10%	-18%	13%[46.1 µM]	3%[46.1 µM]	-13%	/	/	1%
O=C(Cc1ccc(Cl)cc1)Nc1ccccn1	-2%	0%	/	/	29%	/	/	-3%
COc1cccc(C2c3[nH]c4ccccc4c3CCN2Cc2cccn2-c2ncccn2)c1 (stereo not given)	0%	1%	/	/	-9%	/	/	5%
COc1ccc(-n2c(-c3cccc(OC)c3)nc(=S)c3c2CCCC3)cc1	3%	/	7%	-26%	-6%	4%	-6.5%	17%
NC(=O)CSc1nnc(-c2ccccn2)n1N	0%	1%	/	/	18%	/	/	-4%
COc1ccc(S(=O)(=O)N2C3CCC2CC(NC(=O)C2CC2)C3)cc1 (stereo not given)	19%	0%	-1%	-16%	-7%	0%	0.8%	7%
COc1ccc(-c2csc3ncnc(N4CCN(CCO)CC4)c23)cc1	0%	6%	12%	5%[46.1 µM]	1%	/	/	6%
Cc1ccc2c(c1)NP(=S)(Oc1ccccc1)N2 (stereo not given)	/	17%	?	2%	-23%	/	/	/
Cc1cc(Cl)ccc1NC(=S)N1CCN(C(=O)c2ccco2)CC1	2%	4%	-13%	-1%	11%	/	/	4%
COc1ccccc1C(C)NC(=O)CCOc1cccc(C)c1 (stereo not given)	-2%	-12%	6%[46.1 µM]	-35%[46.1 µM]	10%	/	/	/
O=C(O)/C=C/c1ccc2c(-c3ccccc3)onc2c1	4%	-15%	?	?	8%	?	-2.9%	17%
CC(C)(C)NS(=O)(=O)c1ccc(CCC(=O)N2CCCCC2)cc1	10%	0%	-18%	-12%	-5%	-5%	5.0%	-5%
CCc1c(O)nc(SCC(=O)Nc2ccc(C)cc2)n(C2CCCCC2)c1=O	/	/	?	0%	3%	-6%	-14%	-65%
CC(C)OCCCNC(=O)Cn1ccc2cc(S(=O)(=O)N3CCCCC3)ccc21	2%	15%	7%[46.1 µM]	-16%[46.1 µM]	8%	/	/	-6%
CCC(CO)N=CC1=C(O)CC(c2ccccc2)CC1=O (stereo not given)	-1%	-11%	-17%	-8%	5%	/	/	19%
COc1ccc(Cl)cc1NC(=S)NCCSc1ccc(C)cc1	-99%	-2%	15%	?	12%	1%	-14%	-24%
COc1ccc(CN(C)C(=O)c2ccccc2Sc2ccccc2C#N)cc1OC	-1%	?	?	1%[46.1 µM]	1%	/	/	11%
O=C(CSc1nc2ccccc2o1)NC(=O)NCc1ccccc1	0%	-16%	-5%	-1%	-8%	0%	-4.9%	0%
C=C(C)Cn1c(=O)c2c(nc3n2CCN3c2cccc(Cl)c2C)n(C)c1=O	-1%	22µM*	-11%	4%	-1%	18%	-1.0%	-7%
OC(COCCC12CC3CC(CC(C3)C1)C2)CN1CCCCC1 (stereo not given)	-11%	/	?	2.9µM*	4%	-2%	6.7%	0%
C[N+]12CCC(CC1)C(C(O)(c1ccccc1)c1cccs1)C2 (stereo not given)	-1%	/	-5%	1%	-7%	5%	-5.4%	-2%
CN(CCNC(=O)c1ccc(/C=N/O)nc1)Cc1ccccc1	27%	-25%	-1%	9%	-18%	-4%	-1.4%	1%
Cc1cccc(N(CC(N)=O)C2SC(=O)N(Cc3cccc(C(=O)O)c3)C2=O)c1 (stereo not given)	/	-3%	26%[46.1 µM]	0%[46.1 µM]	/	-8%	-3.2%	/
COc1ccccc1NS(=O)(=O)c1cc(NC(=O)CNC(=O)c2ccccc2)ccc1C	7%	0%	4%	9%	5%	-6%	-2.4%	-4%
O=C(Nc1ccc([N+](=O)[O-])cn1)C1CCCCC1	-19%	-17%	22%	19%	?	-4%	-6.6%	17%
Cc1cccc(NC(=O)c2onc3c2CCCC3)n1	-33%	?	?	1.3µM*	22µM*	-5%	-2.9%	-10%
CC(C)CNS(=O)(=O)c1ccc(CCC(=O)N2CCC(C(N)=O)CC2)cc1	3%	15%	14%[46.1 µM]	13%[46.1 µM]	-10%	/	/	0%
Cc1cccc(NCC(O)Cn2cnc3c2c(=O)n(C)c(=O)n3C)c1 (stereo not given)	13%	?	0%	?	-10%	-8%	-0.2%	6%
Cc1csc(C(=O)O)c1-c1c(C)csc1C(=O)O	-18%	-18%	-5%	0%	11%	11%	0.3%	14%
CCN1CCN(Cc2nc3ccc([N+](=O)[O-])cc3c(=O)n2-c2ccc(OC)cc2OC)CC1	0%	1%	20%	20%[46.1 µM]	-5%	/	/	6%
CC(=O)Nc1ccc(S(=O)(=O)N(C)CCOCc2ccccc2)cc1	6%	-15%	?	?	20%	-2%	-1.2%	-1%
COc1ccc(CCNC(C)CCc2ccc(OC)cc2)cc1 (stereo not given)	-5%	/	0%	?	12%	1%	11%	-10%
O=C(CSCc1ccccc1)N1CCN(Cc2ccc3c(c2)OCO3)CC1	-10%	-8%	-12%	0%[46.1 µM]	-2%	0%	-0.3%	-13%
CC1(c2nnc(-c3ccc(F)cc3)o2)CC(c2ccc([N+](=O)[O-])cc2)=NO1 (stereo not given)	2%	-31%	/	/	4%	/	/	-1%
CCCCn1c(SCC(N)=O)nc2sc3c(c2c1=O)CCC3	-4%	-14%	/	/	-3%	/	/	20%
COc1ccc(Cn2nnnc2C(C(C)C)N2CCN(c3ccccc3OC)CC2)cc1 (stereo not given)	-2%	25µM*	?	?	11%	-3%	-2.5%	-35%
Cc1cc(N)c(-n2cc3c(=O)n(C)c(=O)n(C)c3c2)cc1C	3%	6%	11%	15%	-15%	16%	-2.0%	?
CCN(CC)c1ccc(NC(=O)C(Cc2ccccc2)NS(=O)(=O)c2ccc(Br)s2)c(C)c1 (stereo not given)	/	28%	1%[46.1 µM]	13%[46.1 µM]	/	10%	-1.4%	/
Cc1cc(C)c(NC(=O)CS(=O)CC(=O)NC2CCCc3ccccc32)c(C)c1 (stereo not given)	1%	-16%	0%	-10%	6%	-1%	-4.3%	1%
COCc1cc(C)nc(Nc2cc(C)ccc2C)c1C#N	-1%	/	10%	17%	-11%	-3%	-0.3%	-9%
CCCN(CC(=O)Nc1ccccc1C)C(=O)c1ccc(S(=O)(=O)N2CCCC2)cc1	2%	-19%	5%	6%	7%	/	/	/
COc1cccc(-c2nnc(SCC(=O)N3CCC(C)CC3)o2)c1	/	9%	1%[46.1 µM]	?	/	11%	-2.6%	/
O=c1c2sc3ccccc3c2n(Cc2cccc(F)c2)c(=O)n1Cc1ccccc1	/	-17%	3%[46.1 µM]	-2%[46.1 µM]	/	-8%	-2.4%	/
Cc1cc(C)c(NC(=O)C2CCN(C(=O)c3ccco3)CC2)c(C)c1	1%	-16%	/	?	23%	/	/	12%
Cc1ccc(-c2nc(SCC(=O)Nc3cc(C)on3)c3c(=O)n(C)c(=O)n(C)c3n2)cc1	4%	-21%&-17%	1%	?	-1%	5%	2.2%	18%
CCCCn1c(NS(=O)(=O)c2ccc(C)cc2)c(C(=O)OCC)c2nc3ccccc3nc21	-16%	5%	15%	?	8%	20%	-2.0%	3%
CCOC(=O)c1c(S(=O)(=O)N2CCC(C(=O)N3CCN(c4ccc(F)cc4)CC3)CC2)c(C)n(C)c1C	/	-2%	-15%[46.1 µM]	/	/	?	-0.6%	/
Following part.
SMILES	SARS PLP yeast	StopGo reporter	LASV entry inh	Marburg entry inh	RE007 growth inh	Cruzain inh noDet	Cruzain inh Det	NS1 inh
CCCC(=O)Nc1ccc(C(=O)N/N=C/c2ccc([N+](=O)[O-])o2)cc1	-8%	?	?	12µM*	-8%	18%	-8.7%	2%
O=C(NCCN1CCCC1)c1cccc(Cl)c1	0%	-1%	2%	27%[46.1 µM]	-11%	/	/	4%
Cc1nc2cc(NS(=O)(=O)c3cccc(F)c3)ccc2s1	-1%	17%	?	0%[46.1 µM]	-17%	/	/	-4%
CCOC(=O)c1cnc(N2CCOCC2)[nH]c1=O	0%	2%	-1%	17%	4%	-3%	0.6%	-2%
O=C1CC(Nc2ccccc2)C(=O)N1Cc1ccccc1 (stereo not given)	-3%	-15%	-3%	-1%[46.1 µM]	-5%	-6%	-1.7%	-8%
COc1ccc(NC(=O)CNS(=O)(=O)c2ccc(Cl)cc2)cc1OC	15%	-7%	-11%	?	-18%	3%	-1.1%	14%
Cc1oc(CC(C)C)cc1C(N)=O	0%	-10%	0%	-16%[14.2 µM]	-8%	/	/	1%
CC(C)n1c(SCC(=O)NC2CC2)nnc1-c1ccco1	1%	-1%	22%[46.1 µM]	-8%[46.1 µM]	1%	/	/	7%
COC(=O)c1ccc(CN2C(=O)c3ccccc3C2=O)o1	-1%	5%	-5%[46.1 µM]	0%[46.1 µM]	12%	/	/	-1%
Cc1ccccc1C(=O)NCC(C)NC(=O)c1ccccc1C (stereo not given)	/	1%	-6%	8%	6%	/	/	/
O=C(c1cccs1)N1CCN(S(=O)(=O)c2cccc(Cl)c2Cl)CC1	0%	?	?	-15%	5%	/	/	/
O=C(CSCc1ccccc1Br)N/N=C/c1ccc(OCC(=O)N2CCCCC2)cc1	-24%	-22%	24%	?	-5%	5%	-6.2%	0%
O=C(COC(=O)CCOc1ccccc1)Nc1cc(S(=O)(=O)N2CCCCC2)ccc1Cl	-7%	-6%	-8%[46.1 µM]	1%	-6%	/	/	/
Cc1cc(C)n(C(=O)CNC(=O)c2ccccc2F)n1	0%	22%	/	/	-3%	/	/	-10%
